Screening results as filed in PubChem.
VDR inhibitor – blocks the human vitamin D receptor; VDR-SRC2-3 peptide fluorescence polarization, 2 h; P11473; Potency, µM, for inactives: max response, negative = inhibition, hits mostly inhibitors; hit rate 0.93% among 400,000; active means well fitted inhibition curve with a large enough effect; inconclusive means small, poorly fitted or top-dose-only effect, or another doubt; inactive means no such curve, though single readings can be large or run the other way; further: series mostly up to about 120 µM
Target sequence (P11473 whole entry, looked up): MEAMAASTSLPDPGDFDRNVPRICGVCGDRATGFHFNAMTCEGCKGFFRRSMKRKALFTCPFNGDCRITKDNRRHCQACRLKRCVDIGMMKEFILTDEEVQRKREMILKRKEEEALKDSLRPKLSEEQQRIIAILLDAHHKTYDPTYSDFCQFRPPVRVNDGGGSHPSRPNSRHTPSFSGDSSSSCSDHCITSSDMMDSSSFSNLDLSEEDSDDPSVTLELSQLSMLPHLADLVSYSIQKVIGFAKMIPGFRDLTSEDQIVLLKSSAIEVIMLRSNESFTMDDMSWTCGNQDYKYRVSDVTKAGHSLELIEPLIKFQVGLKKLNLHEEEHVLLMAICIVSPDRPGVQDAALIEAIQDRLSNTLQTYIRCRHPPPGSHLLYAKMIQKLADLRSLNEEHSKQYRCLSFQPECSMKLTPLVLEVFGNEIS
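After 23 nl compound addition and a short centrifugation, plates sat for 2 hours at ambient temperature; polarization of fluorescence then indicated loss of VDR binding to peptide SRC2-3.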
* = called active by the depositor; ? = inconclusive; & = joins results of further samples. On the % scale 0 is the no-effect control and ±100 the full control effect; potency means the concentration at half of the fitted maximal effect.

SMILES | VDR inhibitor
COc1ccc(CC(=O)NCc2ccc3c(c2)CCN3C(=O)c2ccc(Cl)cc2)cc1 | -7%
CCCC/C(O)=N\S(=O)(=O)c1ccc(N=NN(C)C)cc1 | 6%
COCCOC(=O)c1c(NC(=O)CSc2cccc[n+]2[O-])sc(C(N)=O)c1C | 2%
Cc1ccccc1NC(=O)CCC(=O)N1CC(C)Sc2ccccc21 (configuration not stated) | -1%
COc1ccc(N(CC(=O)Nc2cccc(C)c2)S(=O)(=O)c2c(C)noc2C)cc1 | -11%
O=C(NCc1ccccc1)NC(O)C(Cl)(Cl)Cl (configuration not stated) | -7%
COC(=O)C1CCN(Cc2ccc(OCCCN3CCN(c4ccc([N+](=O)[O-])cc4)CC3)cc2)CC1 | 12%
O=C(C1CCCCN1S(=O)(=O)c1ccccc1)N1CCCCC1 (configuration not stated) | 16%
O=C(NCc1ccc(Cl)cc1)c1ccc(NC(=O)C2CCCO2)cc1 (configuration not stated) | -3%
CNC(=O)CN(c1cc(C)ccc1OC)S(=O)(=O)c1ccc(C)cc1 | 4%
CCCCNC(=O)Cn1c(=O)n(C)c2ccccc21 | -17%
CCOC(=O)C1=C(C)Nc2sc(C(=O)c3ccc(Br)cc3)c(N)c2C1c1ccc(C(=O)OC)cc1 (configuration not stated) | 6%
CCOc1ccc(NC(=O)COC(=O)c2cc(=O)c3ccccc3o2)cc1 | 3%
COCCCNC(=O)C1CCN(c2nc3ccc(C)cc3[nH]2)CC1 | 11%
CCC(C)(C)NC(=O)CN(C(=O)CCC(=O)Nc1nccs1)c1ccc2c(c1)OCCO2 | -3%
O=C(O)c1cccc(N/N=C/c2cccnc2)c1 | -23%
O=C(CC1SC(N2CCCC2)=NC1=O)Nc1ccc(C(=O)Nc2ccccc2)cc1 (configuration not stated) | -18%
Fc1cccc(CN2CCN3CCCC3C2C2CCCCC2)c1 (configuration not stated) | 4%
CNC(=S)NCCc1ccc(OC)cc1 | 15%
CNS(=O)(=O)c1ccc(C(C)(C)C)cc1 | 22%
Cc1ccc2sc(N3CCN(C(=O)c4ccc([N+](=O)[O-])o4)CC3)nc2c1C | ?
COc1ccc(OC)c(C(=O)CN2C(=O)N(c3cc(C)cc(C)c3)S(=O)(=O)c3ccccc32)c1 | 8%
Cc1cc(C)cc(NC(=O)Nc2c(Br)cnn2C)c1 | -8%
CC(C)C(OC(=O)CN1C(=O)c2ccccc2C1=O)C(=O)NC1CCCCC1 (configuration not stated) | 8%
O=C(Nc1c(C(=O)N2CCN(c3ccccc3)CC2)oc2ccccc12)c1ccco1 | -5%
Carrying on:
SMILES | VDR inhibitor
CCN(CC)S(=O)(=O)c1ccc(NC(=O)c2ccc(N3CCCC3=O)cc2)cc1 | -4%
Cc1cccc(-n2ncc3c(Nc4c(C)cc(C)cc4C)ncnc32)c1 | 14%
COc1ccc(-c2noc(C)c2-c2ccc3ccccc3n2)c(O)c1 | 5%
O=C1c2ccccc2-c2onc3c(N4CCN(CCO)CC4)cc(N4CCN(C(=O)c5ccco5)CC4)c1c23 | -1%
CCN1CCSc2ccc(C(=O)NCc3ccccc3Br)cc21 | 5%&-4%
CCOC(=O)c1sc2ncn(CC(=O)Nc3ccc(C)cc3C)c(=O)c2c1C | -6%
Cc1cc(=O)n2c(C(=O)Nc3ccc(C)c(C)c3)c(C(=O)Nc3ccccc3)sc2n1 | 8%&3%
O=S(=O)(Nc1cccc2ccccc12)c1cccc2ccccc12 | 9%
Cc1cc2oc(=O)ccc2cc1[N+](=O)[O-] | 1%
COc1ccccc1C(CNC(=O)CNC(=O)c1ccc(C)c(C)c1)N1CCCC1 (configuration not stated) | -4%
CC1CCN(C(=O)CSc2nc(N)cc(N)n2)CC1 | 6%
Cc1ccc(C(=O)OCC(=O)NC(=O)c2ccccc2)o1 | 0%
CCOc1nc2ccccc2nc1NS(=O)(=O)c1ccc(Cl)cc1 | -14%
S=c1nn[nH]c2ccccc12 | -14%
COc1ccc2c(c1)C(=O)CC(c1ccccc1F)O2 (configuration not stated) | -5%
C/C(=N\NC(=O)COc1cccc(Br)c1)c1ccc2c(c1)OCCO2 | 15%
CC(C)(CC(=O)OCC(=O)Nc1ccc(F)c(Cl)c1)CC1=NS(=O)(=O)c2ccccc2N1 | 17%
Cc1ccc2[nH]c3c(c2c1)CCc1cn[nH]c1-3 | -1%
O=C(CN1CCN(c2ccc(F)cc2)CC1)Nc1ccc(S(=O)(=O)N2CCOCC2)cc1 | -12%
COc1ccccc1CNC(=O)c1cc2sccc2n1Cc1ccc(Cl)cc1 | -3%
Cc1ccc(CCNC(=O)Cn2ccc3cc(S(=O)(=O)N4CCCC4)ccc32)cc1 | -7%
CC(=O)OCc1cc(=O)n(C)c(=O)n1C | -2%
Cc1cc(C)n2nc(SCC(=O)Nc3ccc(F)cc3[N+](=O)[O-])nc2n1 | -11%
COc1cc2c(cc1OC)CN(C(=O)CNS(=O)(=O)c1ccc(C)c(C)c1)CC2 | 2%
O=C(CN1CCCCCC1)NCCN1C(=O)S/C(=C\c2ccccc2Cl)C1=O | -25%

Three compounds already listed, arranged by their value in VDR inhibitor, rising.
SMILES | VDR inhibitor
CCN(CC)S(=O)(=O)c1ccc(NC(=O)c2ccc(N3CCCC3=O)cc2)cc1 | -4%
Cc1ccc(C(=O)OCC(=O)NC(=O)c2ccccc2)o1 | 0%
C/C(=N\NC(=O)COc1cccc(Br)c1)c1ccc2c(c1)OCCO2 | 15%

Continued:
SMILES | VDR inhibitor
COc1ccc(CN(C)CC(=O)NC(=O)NCc2ccccc2)c(OC)c1 | -7%
CCc1nn2c(=O)cc(COC(=O)c3ccc(NC(=O)c4cccs4)cc3)nc2s1 | 6%
O=C1CC(c2ccco2)Sc2nc3ccccc3n21 (configuration not stated) | -14%
CCN(c1cccc(C)c1)C1C(=O)c2ccccc2N1C(C)=O (configuration not stated) | -11%
Cc1ccc(OCCOCCNC(C)C)c(Br)c1 | 1%
COc1ccc(NC(=O)CSC2=Nc3ccccc3C3=NC(Cc4ccccc4)C(=O)N23)cc1Cl (configuration not stated) | 7%
CCOc1ccc(CN(C)c2nc(-c3cccnc3)nc3ccccc23)cc1OC | -17%
CCOc1ccc(C(=O)COC(=O)c2nn(CC)c(=O)c3ccccc23)cc1 | 7%
CSCCC(NS(=O)(=O)c1ccccc1)C(=O)OCc1nc2ccsc2c(=O)[nH]1 (configuration not stated) | 19%
COc1ccc(CC(=O)N[C@@H](C)C(=O)N2CCC3(CC2)NCCc2[nH]cnc23)cc1 | -8%
COC(=O)c1cn(-c2ccccc2)nc1-c1ccncc1 | 13%
O=C(CSc1nnc(COc2ccc(Cl)cc2)o1)OC1CCCCC1 | 2%
CC(C)CC1c2[nH]c3ccccc3c2CCN1C(=O)c1cnccn1 (configuration not stated) | 8%
Cc1cc(-c2nc3cccnc3s2)ccc1NS(=O)(=O)c1cccs1 | -9%
Cc1cc(NCCCn2ccnc2)n2nc(-c3ccc(F)cc3)cc2n1 | 1%
CCNc1nc(-c2ccc(Cl)cc2)cs1 | -6%
CCOC(=O)CCN(c1ccccc1)S(=O)(=O)c1cc(-c2cc(C)no2)ccc1C | 7%
O=C(O)CSc1c2c(nc3cc(C(=O)N4CCCC4)ccc13)CCCC2 | 8%
Cc1ccc2c(CC(=O)OCc3csc(C)n3)coc2c1 | -25%
CCC1CCCCN1CCCNC(=O)Cn1nc(-c2ccccc2)ccc1=O (configuration not stated) | -10%
CCOC(=O)c1ccc(CSc2nnc(N)s2)cc1 | -13%
COc1ccccc1Cc1nc2ccccc2nc1SCC(=O)N(C)c1ccc(F)cc1 | 2%
Cc1nc2cc(-c3ccccc3)nn2c(C)c1CCC(=O)NCCc1ccccc1 | -14%
CC(=O)OC1CC(OC(C)=O)[C@]2(C)C(CC(OC(C)=O)[C@@]3(C)C4=CC(=O)OC(c5ccoc5)[C@]4(C)CCC32)C1(C)C (some centres not stated) | 16%
CN(Cc1ccccc1)C(=O)C(=O)Nc1ccc2nc3n(c(=O)c2c1)CCCCC3 | 5%
Later entries.
SMILES | VDR inhibitor
Cc1cccc(NC(=O)CSc2nnc(CCNC(=O)OC(C)(C)C)o2)c1C | -23%
Cc1sc2nc(CN3CCOCC3)nc(Oc3ccc(NC(=O)c4ccco4)cc3)c2c1C | 18%
CCCCn1cnc2c(cnn2-c2ccc(F)cc2)c1=O | 5%
CCOc1ccc(-n2c(SCc3ccc(C#N)cc3)nnc2-c2cccnc2)cc1 | -14%
Cc1nnc(SCC(=O)Nc2ncc(Cl)cc2Cl)n1Cc1ccccc1 | 6%
CCOC(=O)C1CCCN(CC(=O)N(C)c2c(N)n(Cc3ccccc3)c(=O)[nH]c2=O)C1 (configuration not stated) | ?
COc1ccc(-c2noc(-c3ccccc3C(=O)N3CCOCC3)n2)cc1 | 12%
Cc1cccc2c1-c1sc(C(=O)N3CCN(c4ccccc4)CC3)cc1CO2 | -5%
C=CCC1(CC=C)CCCN1C(=O)Cn1nnnc1CN(C)C(C)C | 1%
S=C(Nc1ccccc1)N1CCC(C2CCN(C(=S)Nc3ccccc3)CC2)CC1 | -3%
O=C(CN1C(=O)NC2(CCCC2)C1=O)Nc1ccccc1-c1ccccc1 | 9%
COc1cccc(CN(C)C(=O)C2CCN(S(=O)(=O)c3cccs3)CC2)c1OC | -3%
O=C(COc1ccccc1Cl)Nc1ccc(N2CCCC2)cc1 | -23%
O=C(Nc1nnc(CCc2ccccc2)s1)c1cccc(F)c1 | -5%
CC1CCCC(NC(=O)c2ccc(F)c(S(=O)(=O)N3CCOCC3)c2)C1C (configuration not stated) | 0%
Cc1ccc(S(=O)(=O)C(CCC(=O)c2ccc(Cl)cc2)C(N)=O)cc1 (configuration not stated) | 11%
O=C(Nc1ccc(-c2nc3cc(Cl)ccc3o2)cc1)c1cc(Br)ccc1Cl | -15%
CCc1n[nH]c2c1/C(=N/O)CCC2 | -7%
CCOC(=O)N1CCC(NC(=O)C(Cc2ccccc2)NC(=O)C2CCCCC2)CC1 (configuration not stated) | 13%
O=C(COC(=O)CNS(=O)(=O)c1c(Cl)cccc1Cl)Nc1cccnc1Cl | 7%
CC(=O)c1c(C)[nH]c(C(=O)NCc2ccc(C)cc2)c1C | -5%
CCN1C(=NCCCCO)N[C@@H](c2cccc(C(F)(F)F)c2)C(C(=O)OC)=C1C | -7%
O=C1CN(C(=O)COC(=O)/C=C/c2ccc(F)cc2)c2ccccc2N1 | 11%
CCN(CC)c1ccc(C2NCC(c3ccc([N+](=O)[O-])cc3)O2)cc1 (configuration not stated) | -9%
CCc1cccc(C)c1NC(=O)c1cccc(N(C)C)c1 | -17%
Next part:
SMILES | VDR inhibitor
CCCCNC(=S)NNC(=O)c1cc(C2CC2)nc2ccccc12 | 5%
O=C(c1ccc(Cl)cc1)c1c[nH]cc1-c1ccccc1 | 6%
O=C(Nc1ccc(S(=O)(=O)N2CCCCC2)cc1)C1CC(=O)N(c2ccccc2)C1 (configuration not stated) | -10%
CN(C)C=Nc1ccc(Cl)c(Cl)c1 | -13%
COc1c(C)cc(C(=O)C2CCCN(S(=O)(=O)c3c(C)noc3C)C2)cc1C (configuration not stated) | -9%
CCOc1cc(/C=N/NC(=O)c2ccccc2-n2cccc2)ccc1O | -14%
Cc1cccc(C)c1N(CC(=O)NCc1ccco1)C(=O)CNS(=O)(=O)c1ccc(F)cc1 | 13%
N#C/C(=C\c1cccs1)C(=O)NCc1ccco1 | -2%
CCOc1ccc(-c2nonc2NC(=O)COc2ccccc2)cc1 | -6%
CCC(=O)N1c2ccc(S(=O)(=O)CCC(=O)Nc3ccc(Br)c(C)c3)cc2CC1C (configuration not stated) | -21%
CCN(CC)S(=O)(=O)c1ccc(Oc2ccccc2OC)cc1 | -3%
COc1ccccc1NC(=O)CC(=O)c1ccccc1 | ?
OC(CNCCc1ccccc1)c1ccccc1 (configuration not stated) | -8%
COc1ccc2nc(NC(=O)c3ccc4ncsc4c3)sc2c1 | -13%
COc1cccc(N2CCN(C(=O)Cn3c(=O)oc4ccccc43)CC2)c1 | -13%
COc1ccc(C(=O)C2CCN(C(=S)NCC3CCCO3)CC2)cc1 (configuration not stated) | -7%
CC(C)(C)C(=O)N1CCCC1C(=O)O (configuration not stated) | -19%
O=C(Cc1ccc2c(c1)OCCO2)N1CCN(c2ccccc2)CC1 | 3%
CC(Sc1nnc2ccccn12)C(=O)N1CCc2ccccc2C1 (configuration not stated) | -7%
Cc1cc(-n2c(C)cc(C(=O)COc3ccc(F)c(F)c3)c2C)no1 | 0%

Among those listed so far, these have fluorine.
SMILES | VDR inhibitor
Fc1cccc(CN2CCN3CCCC3C2C2CCCCC2)c1 (configuration not stated) | 4%
COc1ccc2c(c1)C(=O)CC(c1ccccc1F)O2 (configuration not stated) | -5%
CC(C)(CC(=O)OCC(=O)Nc1ccc(F)c(Cl)c1)CC1=NS(=O)(=O)c2ccccc2N1 | 17%
O=C(CN1CCN(c2ccc(F)cc2)CC1)Nc1ccc(S(=O)(=O)N2CCOCC2)cc1 | -12%
Cc1cc(C)n2nc(SCC(=O)Nc3ccc(F)cc3[N+](=O)[O-])nc2n1 | -11%
Cc1cc(NCCCn2ccnc2)n2nc(-c3ccc(F)cc3)cc2n1 | 1%
COc1ccccc1Cc1nc2ccccc2nc1SCC(=O)N(C)c1ccc(F)cc1 | 2%
CCCCn1cnc2c(cnn2-c2ccc(F)cc2)c1=O | 5%
O=C(Nc1nnc(CCc2ccccc2)s1)c1cccc(F)c1 | -5%
CC1CCCC(NC(=O)c2ccc(F)c(S(=O)(=O)N3CCOCC3)c2)C1C (configuration not stated) | 0%
CCN1C(=NCCCCO)N[C@@H](c2cccc(C(F)(F)F)c2)C(C(=O)OC)=C1C | -7%
O=C1CN(C(=O)COC(=O)/C=C/c2ccc(F)cc2)c2ccccc2N1 | 11%
Cc1cccc(C)c1N(CC(=O)NCc1ccco1)C(=O)CNS(=O)(=O)c1ccc(F)cc1 | 13%
Cc1cc(-n2c(C)cc(C(=O)COc3ccc(F)c(F)c3)c2C)no1 | 0%

An excerpt; rates above refer to the full screens.
